VACV mCherry inh = inhibitors of vaccinia virus infection (mCherry reporter signal); Vaccinia virus mCherry reporter infection, fluorescence; about a quarter of the inactives have no number; Potency, µM (top dose mostly 36.5 µM), for inactives: at the highest dose activity change, negative = inhibition, most hits filed as inhibitors; 0.63% of 310,000 active; AID 720579; active = well fitted inhibition curve with a large enough effect; inconclusive = small, poorly fitted or top-dose-only effect; inactive = no such curve, though single readings can be large or run the other way; tested in A549 cells; further: nearly all actives have a fitted effect of over 35% in size; inactives centre near -10
Vaccinia Venus = vaccinia inhibition (Venus reporter) | Vaccinia virus Venus reporter expression, fluorescence | Potency, µM (highest dose often 36.5 µM), inactives show top-dose activity change, negative = inhibition, usual class: inhibitors | 0.46% of 330,000 active; active means well fitted inhibition curve with a large enough effect; inconclusive means small, poorly fitted or top-dose-only effect; inactive means no such curve, though single readings can be large or run the other way; tested in A549 cells; further: nearly all actives have a fitted effect of over 30% in size; inactives centre near -10
An asterisk follows results filed as active; i = inactive; u = inconclusive; x = no result given; & = joins results of further samples; [ ] = remark or other dose. On the % scale 0 is the no-effect control and ±100 the full control effect; potency means the concentration at half of the fitted maximal effect.

molecule | VACV mCherry inh | Vaccinia Venus
COc1ccc(C2CC(=O)Nc3c2c(C)nn3-c2nncc(-c3ccc(C)cc3)n2)c(OC)c1OC (centres undefined) | u | u
Cc1cc(C)cc(NC(=O)c2cc(S(=O)(=O)N3CCCC3)ccc2F)c1 | -20% | -22%
Cc1cnc(C)c(-c2cccc3c2OC(CNC(=O)/C=C/c2ccc(F)c(F)c2)C3)n1 (centres undefined) | -15% | -4%
CC(C)=CCC/C(C)=C/CC/C(C)=C/CC/C(C)=C/CC/C(C)=C/CC/C(C)=C/CC/C(C)=C/CC/C(C)=C/CC/C(C)=C/CO | -21% | -4%
c1ccc(-c2nc3cccnc3nc2-c2ccccc2)cc1 | -21% | -21%
COc1cc2c(cc1NC(=O)CN1CCN(S(=O)(=O)c3ccccc3F)CC1)oc1ccccc12 | -15% | -18%
CN(CC(=O)Nc1ccccc1F)Cc1cccs1 | -13% | -9%
C[C@@H]1CN([C@@H](C)CO)C(=O)CCCn2nncc2CO[C@@H]1CN(C)S(=O)(=O)c1ccccc1 | -15% | -13%
Cc1cccc(N2CCN(C(=O)c3ccccc3NC(=O)C3CCCCC3C(=O)O)CC2)c1 (centres undefined) | -9% | -4%
N#CCCn1cc(C=C2C(=O)NC(=O)NC2=O)c(-c2ccccc2)n1 | i | -3%
CC(=O)c1ccc(NC(=O)CNC2CCCCC2)cc1 | -17% | -12%
CN(Cc1ccccc1)c1ccc(-c2nc(-c3ccncc3)no2)cc1[N+](=O)[O-] | u | -28%
CC(C)c1ccc(OC(=O)c2cc(-c3ccccc3)on2)cc1 | -6%[7.34 µM] | -6%[7.34 µM]
O=C(O)C[C@H]1c2cc(F)ccc2S(=O)(=O)N1C1CCCCC1 | -4% | -7%&-22%
CCOC(=O)c1ccc(-n2ncc(C(=O)OCC)c2N)cc1 | x | -23%
CCN(CC)S(=O)(=O)c1ccc(Cl)c(C(=O)OC)c1 | i | -3%
O=C(NCCSc1ccc(Br)cc1)c1ccccc1 | -11% | -8%
CCCn1c(SCC(=O)Nc2cccc(C(=O)OCC)c2)nnc1-c1ccoc1C | -14% | u
O=C(COc1ccc(C(=O)O)cc1)Nc1cccc(C(F)(F)F)c1 | i | -4%
COC(=O)/C=C1\OCc2cc(OCc3ccccc3)ccc21 | -25% | -17%
CCOc1ccc(-c2nnc(SCC(=O)NC(C)(C)C)nc2-c2ccc(OCC)c(OC)c2)cc1OC | i | -19%
CC(C)C[C@H](NC(=O)[C@H](Cc1ccccc1)NC(=O)CNC(=O)CNC(=O)[C@@H](N)Cc1ccc(O)cc1)C(=O)N[C@@H](CCCN=C(N)N)C(=O)N[C@@H](CCCN=C(N)N)C(=O)N[C@@H](CCC(N)=O)C(=O)N[C@@H](Cc1ccccc1)C(=O)N[C@@H](CCCCN)C(=O)N[C@H](C(=O)N[C@H](C(=O)N[C@H](C(=O)O)[C@@H](C)O)C(C)C)C(C)C | -16%[3.33 µM] | -13%[3.33 µM]
CCn1c(CNC(=O)Cc2ccc(OC)cc2)nnc1SCC(=O)Nc1nccs1 | -12% | -10%
Cc1cc(NC(=O)CCC(=O)N(Cc2ccco2)C(C(=O)NC2CCCC2)c2ccc(F)cc2)no1 (centres undefined) | 5% | -10%
COc1ccc(NC(=O)CC2C(=O)N(c3ccc(C)cc3)C(=O)N2C2CCCCC2)cc1 (centres undefined) | -14% | -9%
Cc1cc(C)n(CCNc2nc3nonc3nc2N2CCCCC2)n1 | -8% | -8%
CC1CCc2ccc(F)cc2N1S(=O)(=O)c1cccs1 (centres undefined) | -12% | -22%
COc1ccc(C(=O)CSc2ccccc2C(=O)O)cc1 | i | -8%
COc1ccc(N2C(=S)NC3CS(=O)(=O)CC32)cc1 (centres undefined) | i | -2%
CC(=O)N1CCN(C(=O)CSc2cc(C)c(Br)cc2C)CC1 | i | -19%
CCc1nn2c(=O)cc(COC(=O)c3ccc(NC(=O)COc4ccccc4C)cc3)nc2s1 | -8% | 0%
COc1cccc(NC(=O)CCNS(=O)(=O)c2cccc3nonc23)c1 | -12% | -2%
COc1ccc(-n2c(=O)c3c4c(sc3n(C)c2=O)CN(C(C)=O)CC4)cc1 | -17% | -4%
Cc1ccc(CSC2=Nc3ccccc3C3=NC(CC(=O)NCc4cccs4)C(=O)N23)c(C)c1 (centres undefined) | -14% | -8%
Cc1c(-c2ccccc2)n(O)c(-c2ccc(N(C)C)cc2)[n+]1[O-] | -24% | -4%
Cc1csc2nc(COC(=O)c3ccccc3NC(=O)c3cccc(Br)c3)cc(=O)n12 | u | u
CCCCOC(=O)C1=C(N)OC2=C(C(=O)CCC2)[C@]12C(=O)Nc1ccccc12 | -11% | 0%
CCOc1cc(/C=C(\C#N)C(=O)Nc2cccc(C(=O)O)c2)cc(Br)c1OC(=O)c1ccc(OC)cc1 | -12% | -5%
CNC(=O)C[C@H]1C(=O)N(C2CCCCC2)C[C@@H]1C | i | -11%
O=C(Nc1ccc2nc(SCC(=O)N3CCc4ccccc43)sc2c1)c1ccc(F)cc1 | u | u
Cc1ccc(NC(=O)COC(=O)c2ccc(OCc3c(C)noc3C)cc2)cc1S(=O)(=O)N1CCOCC1 | -1% | -4%
Cc1ccnc(NC(=O)C2CCN(S(=O)(=O)c3cccc(C(F)(F)F)c3)CC2)c1 | u | u
CCOc1ccccc1NC(=O)CN1CCC(C(=O)c2ccc(OC)cc2)CC1 | -9% | -8%
COC(=O)c1cc(-c2cccs2)nc2ccccc12 | i | -5%
COc1cc(-c2nnc(SCC(=O)N(Cc3ccccc3)C(C)(C)C)o2)cc(OC)c1OC | -20% | u
C[C@@]12CC[C@@H](C3=C(CCC3)C1)N2c1ccccc1 | -2% | -4%
COc1ccc(CCNC(=O)CCCCCN2C(=O)c3ccccc3C2=O)cc1 | -1% | -17%
O=C(COc1ccc(Br)cc1)NNC(=S)NC(=O)c1ccccc1[N+](=O)[O-] | -15% | -16%
CC(=O)N1CCN(S(=O)(=O)c2cccc(C(=O)OCC(=O)NC(=O)c3cccn3C)c2)CC1 | -13% | -4%
CCOC(=O)C(C(=O)OCC)N(C#N)c1nc(OC)nc(N(C)C)n1 | i[1.46 µM] | -22%

Entries of single compounds from above. Order of screens: VACV mCherry inh, Vaccinia Venus
O=C(COc1ccc(Br)cc1)NNC(=S)NC(=O)c1ccccc1[N+](=O)[O-] as listed: -15%, -16%
O=C(O)C[C@H]1c2cc(F)ccc2S(=O)(=O)N1C1CCCCC1 as listed: -4%, -7%&-22%
CCOC(=O)C(C(=O)OCC)N(C#N)c1nc(OC)nc(N(C)C)n1 as listed: i[1.46 µM], -22%
CCCn1c(SCC(=O)Nc2cccc(C(=O)OCC)c2)nnc1-c1ccoc1C as listed: -14%, u
Cc1csc2nc(COC(=O)c3ccccc3NC(=O)c3cccc(Br)c3)cc(=O)n12 as listed: u, u

Going on with the list.
molecule | VACV mCherry inh | Vaccinia Venus
Fc1cccc(Cc2noc(CN3CCC(c4ccncc4)CC3)n2)c1 | u | -25%
Cc1cc(C(=O)OCC(=O)NC(=O)C2CCCCC2)ccc1[N+](=O)[O-] | -5% | -16%
COc1ccc(OC)c(S(=O)(=O)N(C)CC(=O)N2CCN(c3ccccc3F)CC2)c1 | x | 5%
O=C1C=C(c2cc(F)ccc2F)C[C@@H](c2ccc(Cl)cc2)C1 | u | -17%
Cn1cnc([N+](=O)[O-])c1Oc1cccc(O)c1 | u | u
Cc1cccc(N(C(=O)c2nsc(Cl)c2Cl)C(C(=O)NC2CCCC2)c2ccc(O)cc2)c1C (centres undefined) | -18% | -27%
COc1ccc(-c2cc([N+](=O)[O-])ccc2OCC(=O)N(C)CC(=O)Nc2ccc(C)cc2)cc1 | -19% | -24%
O=C(NC1CCCC1)NS(=O)(=O)c1ccccc1Cl | -13% | -9%
COc1ccc(-n2nc(C(=O)NCC(=O)N3CC(C)CC(C)C3)c3ccccc3c2=O)cc1 (centres undefined) | -15% | -12%
O=C1C2=C(Nc3ccccc3SC2c2ccc(Cl)c(Cl)c2)c2ccccc21 (centres undefined) | u | u
Cc1ccc(NC(=O)CN(C)C(=O)c2ccc(OCc3c(C)noc3C)cc2)cc1 | -22% | -15%
O=C1CCN(C(=O)c2ccccc2)c2ccccc21 | -4% | -15%
O=C(C1CCCN(S(=O)(=O)c2cccs2)C1)N1CCN(c2ccccc2F)CC1 (centres undefined) | -10% | -2%
CCN1CCN(C(=O)C2(NC(=O)Nc3ccccc3Cl)CCCCC2)CC1 | -27% | -19%
CCn1cc(C(=O)NCc2ccccc2)c(=O)c2cc(S(=O)(=O)N3CCOCC3)ccc21 | -5% | -14%
Cc1cnc2c(C)cccc2c1C | -8% | 2%
COc1ccc(CSCCN)cc1Cl | -10% | -8%
COc1ccc(Nc2cc(C(=O)NCCCN3CCN(c4ccc(OC)cc4)CC3)c3ccccc3n2)cc1 | u | u
N#CCSCC(=O)Nc1ccccc1 | x | -16%
COc1ccc(N2CCN(Cc3nc4cc(Cl)ccc4c(=O)[nH]3)CC2)cc1 | -16% | -14%
O=c1[nH]c(=O)n(-c2ccc(F)cc2)c(O)c1C=NCCN1CCCCC1 | -2% | 0%
COc1ccc(OC)c(CCNC(=O)CCc2cn(Cc3cc(C)ccc3C)c3ccccc23)c1 | -13% | -16%
COC(=O)[C@@]12C[C@@H](CC(=O)NCC3CCCCC3)C(=O)N(Cc3cccc4ccccc34)C1=CCC(C)(C)C2 | -23% | 2%
COc1ccc(NC(=O)CN(C)C(=O)/C=C/c2cn(-c3ccccc3)nc2-c2ccc(F)cc2)cc1 | u | u
O=Cc1ccccc1-n1cncn1 | 9% | -1%
Cc1cccc(C(=O)Nc2ccc(C(=O)OCc3cc(=O)n4c(C)csc4n3)cc2)c1 | -2% | -18%
CC(=O)NC(=S)Nc1cc(C(=O)O)ccc1Cl | i | -8%
Cc1ccc(S(=O)(=O)N2CCOCC2)cc1NC(=O)CN1CCN(c2ccc(O)cc2)CC1 | -7% | -3%
Cc1nnc2ccc(N3CCCCC3)nn12 | i | -11%
CCOC(=O)c1c(CC(C)C)csc1NC=O | x | -10%
Cc1cc(C)n(CC(O)COc2ccc(C(C)C)c(C)c2)n1 (centres undefined) | i | -14%
COc1ccccc1C(C)NCC(=O)Nc1c(F)cccc1F (centres undefined) | -13% | -2%
CCC(C)NC(=O)C1CCN(S(=O)(=O)N2CCCC2)CC1 (centres undefined) | -4% | -1%
Cc1ccc2sc(N(CCN(C)C)C(=O)c3ccc(S(=O)(=O)N4CC(C)OC(C)C4)cc3)nc2c1C (centres undefined) | i | -14%
CC(C(=O)Nc1cccc(C#N)c1)n1nc(-c2ccccc2)c2c(c1=O)CCCC2 (centres undefined) | -12% | -9%
COc1ccccc1/C=C/CN1CCCC(CO)(Cc2cccc(Cl)c2)C1 (centres undefined) | -8% | 4%
CCN(c1ccccc1)S(=O)(=O)c1ccc(OCc2c(C)noc2C)cc1 | -11% | -3%
Cc1csc(SC(C)C(=O)NCC(=O)Nc2ccc(F)c(F)c2F)n1 (centres undefined) | -22% | 6%
CC1(CCC(=O)N2CCCC(N3CCN(c4ccc(F)cc4)CC3)C2)CC1 (centres undefined) | -4% | -21%
Cc1cccc(C(=O)NCC(=O)OCC(=O)c2ccc(C)s2)c1 | i | -9%
Cc1cc(S(=O)(=O)Nc2ccc3cn[nH]c3c2)c(C)cc1Cl | -11% | -6%
S=C(Cc1ccccc1)N1CCOCC1 | i | -3%
O=C(Nc1cc(Cl)cc(Cl)c1)C(c1ccccc1)N1CCCCC1 (centres undefined) | -15% | -2%
CNc1cccc(-c2cccc(C(=O)N3CCOCC3)c2)n1 | -2% | 12%
CCC(CC)C1C(C#N)=C(N)Oc2n[nH]c(-c3ccccc3)c21 (centres undefined) | u | u
Cc1ccc2c(c1)C(c1ccccc1)C(=O)O2 (centres undefined) | i | -10%
CNC(=O)Nc1ccccc1F | -9% | -8%
O=C(NCc1cccnc1)c1ccc([N+](=O)[O-])cc1 | -2% | -2%
Cc1cc(C(F)(F)F)nc(SCC(=O)Nc2nccs2)n1 | -5% | -12%
CCOc1ccc(-c2nc(-c3ccncc3)no2)cc1OCC | -5% | u

Next part, overlapping the part above by 2 compounds.
molecule | VACV mCherry inh | Vaccinia Venus
Cc1cc(C(F)(F)F)nc(SCC(=O)Nc2nccs2)n1 | -5% | -12%
CCOc1ccc(-c2nc(-c3ccncc3)no2)cc1OCC | -5% | u
CC(O)Cc1cn([C@@H](CCCCN)C(=O)N2CCNCC2)nn1 (some centres undefined) | -12% | 12%
COc1ccc(CSCC(=O)N/N=C/c2ccc(OCC(=O)NCc3ccco3)cc2)cc1 | x | -28%
COc1ccccc1NC(=S)N1CCC(NC(=O)c2ccco2)CC1 | i | -20%
CC(=O)NC1=NN(C(C)=O)C(C)(c2ccc(C)o2)S1 (centres undefined) | -5% | -12%
N#Cc1c2c(c(Nc3ccc(F)cc3)n3c1nc1ccccc13)CCCC2 | -19% | -12%
CCC1(C)N=c2c(c(=O)n(C)c(=O)n2C)=NO1 (centres undefined) | x | -7%
CCc1ccc(N2CC(C)Cn3c2nc2c3c(=O)n(CCN3CCOCC3)c(=O)n2C)cc1 (centres undefined) | -25%[1.46 µM] | u
O=C1OCCN1c1c(-c2ccccc2)c(N2CCOCC2)nc2ccccc12 | -9% | -1%

High-throughput results: PubChem, National Center for Advancing Translational Sciences (NCATS)
